# Sfp PPTase inh: inhibitors of Bacillus subtilis Sfp phosphopantetheinyl transferase; 310,000 tested, 3.5% active; Potency, µM, without a hit: max response, negative = inhibition, hits mostly inhibitors; Biochemical Sfp PPTase activity, qHTS; Q9F4F7; AID 1490; active = well fitted inhibition curve with a large enough effect; inconclusive = small, poorly fitted or top-dose-only effect, or another doubt; inactive = no such curve, though single readings can be large or run the other way;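 also: the enzyme is Sfp with the accession as filed and its product quenches rhodamine fluorescence; potency is read from the fitted curve at half-maximal effect; 0% = enzyme reaction without inhibitor and -100% = no enzyme wells; top concentration of the series not given in the record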
#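 Buffer: 50 mM Hepes-Na pH 7.6, 10 mM MgCl2, 0.01% Nonidet P-40, 0.01% BSA. Enzyme 15 nM, pre-exposed to compound 15 min; substrates then added and fluorescence change tracked over 30 min.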
# D2 potentiator: positive allosteric modulators of human D2 dopamine receptor | DiscoveRx D2 beta-arrestin cells, luminescence, 90 min; 100% = 57 uM dopamine signal | potentiation, % (no concentration beside the values) | AID 624464 | 360,000 tested, 0.23% active | P14416; active = potentiation of 50% or more; inconclusive = 30% to 50%; inactive = 30% or less;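 also: compound concentration not given in the record; tested on top of an EC20 dose of dopamine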
# Target sequence (P14416 whole entry, looked up): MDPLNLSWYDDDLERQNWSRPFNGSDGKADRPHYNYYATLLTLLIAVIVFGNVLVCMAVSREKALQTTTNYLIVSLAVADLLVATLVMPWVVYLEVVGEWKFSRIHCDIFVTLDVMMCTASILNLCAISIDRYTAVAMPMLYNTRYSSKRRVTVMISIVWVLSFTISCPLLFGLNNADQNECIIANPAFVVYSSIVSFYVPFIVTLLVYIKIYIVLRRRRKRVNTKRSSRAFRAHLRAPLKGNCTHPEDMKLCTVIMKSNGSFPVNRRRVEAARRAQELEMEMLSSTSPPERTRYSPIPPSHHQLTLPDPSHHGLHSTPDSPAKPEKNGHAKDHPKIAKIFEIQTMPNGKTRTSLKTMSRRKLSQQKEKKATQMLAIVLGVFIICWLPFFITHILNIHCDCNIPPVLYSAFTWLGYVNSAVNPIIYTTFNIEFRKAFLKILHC
#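 PathHunter D2 cells, attached overnight at 37 deg C, received compound in DMSO plus dopamine at EC20 (50 nM final) for 90 min at 37 deg C. Beta-arrestin recruitment was read as luminescence after 1 h with detection reagent at ambient temperature.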
# ClpP mod: qHTS Assay for Activators of ClpP; ATP-dependent Clp protease proteolytic subunit (Bacillus subtilis (strain 168)), P80244; purified B. subtilis ClpP, FRET peptide cleavage, 20 min; Potency, µM (top dose mostly 57.5 µM), for the others: at the highest dose activity change, negative = active; 340,000 tested, 1.9% active; active = well fitted falling curve with a large enough effect; inconclusive = small, poorly fitted or top-dose-only effect; inactive = no such curve, though single readings can be large or run the other way; also: potency is read from the fitted curve at half-maximal effect; the source files actives as falling curves though it sought activators and does not explain the sign; nearly all actives have a fitted effect of over 65% in size; many hits overshoot -100%
# Target sequence (P80244 whole entry, looked up): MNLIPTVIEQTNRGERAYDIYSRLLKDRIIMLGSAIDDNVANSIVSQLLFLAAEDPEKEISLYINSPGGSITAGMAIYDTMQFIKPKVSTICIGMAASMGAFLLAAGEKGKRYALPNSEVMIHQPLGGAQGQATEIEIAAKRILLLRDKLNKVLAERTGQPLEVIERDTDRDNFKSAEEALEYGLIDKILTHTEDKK
#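 FRET quenching reversal measured ClpP activation: 10 microg/mL B. subtilis ClpP at pH 8 with the FRET-FV decapeptide, read at 430 nm after 320 nm excitation. The 20-min minus 0-min signal was scaled between DMSO/no-enzyme wells and ADEP (5.8 microM final).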
# gsp antag: gsp mutant antagonism; gsp-mutant cells, cAMP HTRF, 30 min; control for the full effect not named in the record; Potency, µM (series often up to 76.9 µM), for the others: top-dose activity change, negative = inhibition, usual class: inhibitors; 340,000 tested, 0.4% active; AID 624288; active = falling curve of any shape with a large fitted effect; inconclusive = falling curve, mostly with a smaller effect; inactive = flat or rising curve; cell line not stated here;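 also: intracellular cAMP measured with PDE inhibitor Ro 20-1724 present during compound exposure; potency is read from the fitted curve at half-maximal effect; % is scaled to controls: 0 for no effect and ±100 for the full control effect; nearly all actives have a fitted effect of over 65% in size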
#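 HTRF cAMP read-out (cAMP-d2 plus anti-cAMP antibody-K in lysis buffer, 30 min RT). Before lysis, cells are exposed to compounds with […] for 30 min at 37C in DPBS containing Ca/Mg, BSA and Tween 20.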
# gsp agonist: activates gsp, the McCune-Albright syndrome mutation. gsp mutant cells, cAMP HTRF, 30 min; control for the full effect not named in the record. Potency, µM (top dose mostly 76.9 µM), for the others: at the highest dose activation (cAMP increase), hits mostly activators. 340,000 tested, 0.13% active. AID 624287; active = well fitted activation curve with a large enough effect; inconclusive = small, poorly fitted or top-dose-only effect, or another doubt; inactive = no such curve, though single readings can be large or run the other way; cell line not stated here;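 also: phosphodiesterase inhibitor Ro 20-1724 added with compounds to block cAMP breakdown; potency is read from the fitted curve at half-maximal effect; nearly all actives have a fitted effect of over 60% in size; about a fifth of the inactives were tested at one dose only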
#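 Cells stably selected in G418 were plated at 2000/well, grown 16-24 hr, then given compounds in DMSO with the PDE inhibitor […] (300 uM solution added) for 30 min at 37C; cAMP was read by HTRF.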
# TRPV1 PAM: enhances activation of the human vanilloid receptor TRPV1. Q8NER1. TRPV1-expressing cells, Fluo-8 calcium influx, capsaicin EC20 potentiation; host cell line not named in the record; control for the full effect not named in the record. potentiation, % at 8.33 µM. AID 540277. 320,000 tested, 0.02% active; active means potentiation above 80%; inconclusive means 30% to 80%; inactive means below 30%; also: 0% is about no effect
#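 Fluo-8 calcium influx in TRPV1-expressing cells, kinetic read (ex 480/em 520 nm). Compound added and read 3 min for agonist activity, followed by capsaicin at EC20 final and 2 min further read for enhancement.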
# Menin-MLL FL inh: inhibitors of human menin-MLL interaction, wild-type MLL peptide | Fluorescence polarization, fluorescein-MLL peptide displacement from menin | AID 1766 | 290,000 tested, under 10 active | FP activity change, % at 61.4 µM; inconclusive = falling polarisation curve, or a change in total fluorescence; inactive = total fluorescence flat and polarisation flat or rising; no compound was filed as active; the % refers to the polarisation; negative = inhibition;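 also: % of control where 0% means no effect; inhibitors lower the polarisation; unlabelled MLL peptide was the positive control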
# Active calls of the source: *; ? = inconclusive; . = not tested or not shown; & = joins results of further samples; [ ] = another dose, or the depositor's remark.
SMILES,Sfp PPTase inh,D2 potentiator,ClpP mod,gsp antag,gsp agonist,TRPV1 PAM,Menin-MLL FL inh
COc1ccc(N(C)S(=O)(=O)c2cccc(C(=O)Nc3ccc(-n4cnnn4)cc3)c2)cc1,10%,9,-10%,28µM*,18%,-10,5.5
O=C1Cn2c(nc3ccccc32)-c2ccccc2N1,11%,4,-14%,4%,13%,-12,0.1
CN1CCN(c2ccccc2NC(=O)c2ccccc2F)CC1,-7%,-19,-2.5%,-15%,-9%,-1,3.3
COc1ccccc1NC(=O)C(C)N(C)CC(=O)Nc1cccc2ccccc12 (stereo unspecified),.,-4,-29%,-5%,7%[15.4 µM],.,.
CCCCOc1ccc(N2C(=O)CC(NCCc3ccc(S(N)(=O)=O)cc3)C2=O)cc1 (stereo unspecified),-5%,30,0.7%,-5%,?,8,4.5
CCOc1ccc(N(CC(=O)NC(C(C)C)C(C)C)S(=O)(=O)c2ccc(OC)c(OC)c2)cc1,15%,-4,4.1%,-20%,-71%[inhibitor],3,-6.2
CC(=O)Nc1ccc(S(=O)(=O)N2CCC(c3nc4c(nnn4Cc4ccccc4Cl)c(=O)[nH]3)CC2)cc1,-8%,-2,.,-10%,2%,5,1.2
N#C/C(=C\c1ccccc1)C(=O)NC1CC1,24%,-4,-1.3%,0%,-28%,-2,0.4
CCc1c(C)nc(SCc2cccnc2)[nH]c1=O,3%,-8,-1.4%,7%,-28%,-8,1.5
COCn1c(=O)c2c(nc(SC3=NCCS3)n2Cc2ccccc2C)n(COC)c1=O,-27%,-5,0.2%,-13%,11%,.,2.4
O=C(O)CSc1c(-c2cccs2)[nH]c2ccccc12,0%,-4,-13%,-5%,22%,-2,3.6
CCCc1cc(=O)oc2cc(OCC(=O)NCCCn3ccnc3)ccc12,11%,-8,3.4%,-17%,-48%[inhibitor],-8,0.0
CC(=O)OCCN(Cc1ccccc1)Cc1ccc2c(c1)OCO2,0%,-19,1.1%,3%,-45%[inhibitor],-8,-0.7
COc1ccc(/C=C/C(=O)Nc2sc(Cc3ccccc3)c(C)c2C(N)=O)cc1,4%,12,-1.9%,-6%,11%,?,.
Cc1ccccc1-c1coc2cc(O)ccc2c1=O,19%,3,28µM*,2%,-1%,3,4.1
Cc1cnc(C(=O)Nc2ccc(C(C)C)cc2)cn1,0%,-27,-17%,-9%,0%[15.4 µM],-5,-1.0
O=C(N/N=C/C1C(c2ccccc2)C1(Cl)Cl)c1cccc(Br)c1 (stereo unspecified),-2%,-3,1.0%,-6%,0%,25,5.3
O=C(NCc1nnnn1-c1ccc(F)c(F)c1)c1cc2ccccc2o1,.,-1,-16%,4%,-46%[inhibitor],-15,.
CCOC(=O)c1nn(-c2c(C)n(C)n(-c3ccccc3)c2=O)cc1O,11%,5,-1.6%,-2%,-74%[inhibitor],-4,3.2
O=C1C2CCCN2C(=O)N1CCCN1CCN(c2cccc(Br)c2)CC1 (stereo unspecified),-5%,-5,-1.2%,-8%,1%,?,-8.5
COc1cccc2cc(/C(C)=N/NC(=O)c3ccco3)oc12,12%,-6,.,-1%,?,15,-1.7
CC(C)n1cc(/C=C2/SC(=O)N(CC(=O)N3CCCC3)C2=O)c2ccccc21,6%,-15,0.0%,12%,-7%,14,2.7
Cc1ccc(/C=N/N=C2\SCC(=O)N2CC2CC2)cc1,-14%,-12,0.7%,-4%,-22%[15.4 µM],2,2.8
COC(=O)[C@]1(C)N[C@H](CN(C)S(=O)(=O)c2ccc(-c3ccccc3)cc2)[C@@H]2C(=O)N(Cc3ccccc3)C(=O)[C@@H]21,.,-1,0.0%,-8%,.,.,.
Cn1c(N)c(N=O)c(=O)n(C)c1=O,-19%,-3,.,-11%,26%,18,2.9
CCc1ccc(NC(=O)COn2nnc3ccc(S(=O)(=O)N(C)C)cc32)cc1,21%,-6,-3.9%,-24%,0%,9,7.5
CCC(=O)Nc1cccc(-c2cn3cccc(C)c3n2)c1,-1%,-6,4.0%,3%,10%,0,4.9
CC1CCCN(S(=O)(=O)c2ccc(S(=O)(=O)N3CCCC3)cc2)C1 (stereo unspecified),5%,5,.,3%,8%[15.4 µM],-4,.
CCOc1ccccc1Oc1cn[nH]c1-c1ccc(OC)cc1O,28%,18,-2.5%,-10%,-3%,-10,2.6
O=C(OCc1ccc([N+](=O)[O-])cc1)c1cc2ccccc2oc1=O,.,-19,-6.2%,5%,-3%,.,.
COC(=O)c1ccc(CNC(=O)Cn2nnnc2CN(C)C(C)C)cc1,17%,0,.,5%,-39%[inhibitor],-6,0.9
CCCCn1nc(C(=O)NCc2ccccc2CN2CCCC2)c2ccccc2c1=O,.,-20,-1.2%,-2%,1%,-20,.
Cc1cccc(NC(=O)c2ccc(NS(=O)(=O)c3cccc4cccnc34)cc2)c1,.,0,.,-17%,2%,.,.
Cc1nn(CCN)c(C)c1Cl,8%,-4,-3.6%,-4%,-52%[inhibitor],2,0.1
CCOc1ccc(S(=O)(=O)N2CCN(S(=O)(=O)c3ccc(OCC)cc3)C(C)C2)cc1 (stereo unspecified),-3%,2,-1.1%,5%,20%,-25,?
N#Cc1cnn(-c2ccc(F)cc2)c1N,-7%,-5,.,12%,-3%[15.4 µM],.,?

# Laid out differently: 14 of the compounds above.
# Each structure is followed by: Sfp PPTase inh | D2 potentiator | ClpP mod | gsp antag | gsp agonist | TRPV1 PAM | Menin-MLL FL inh
- CN1CCN(c2ccccc2NC(=O)c2ccccc2F)CC1
    -7% | -19 | -2.5% | -15% | -9% | -1 | 3.3
- COc1ccccc1NC(=O)C(C)N(C)CC(=O)Nc1cccc2ccccc12 (stereo unspecified)
    . | -4 | -29% | -5% | 7%[15.4 µM] | . | .
- CCCCOc1ccc(N2C(=O)CC(NCCc3ccc(S(N)(=O)=O)cc3)C2=O)cc1 (stereo unspecified)
    -5% | 30 | 0.7% | -5% | ? | 8 | 4.5
- CCOc1ccc(N(CC(=O)NC(C(C)C)C(C)C)S(=O)(=O)c2ccc(OC)c(OC)c2)cc1
    15% | -4 | 4.1% | -20% | -71%[inhibitor] | 3 | -6.2
- CC(=O)Nc1ccc(S(=O)(=O)N2CCC(c3nc4c(nnn4Cc4ccccc4Cl)c(=O)[nH]3)CC2)cc1
    -8% | -2 | . | -10% | 2% | 5 | 1.2
- N#C/C(=C\c1ccccc1)C(=O)NC1CC1
    24% | -4 | -1.3% | 0% | -28% | -2 | 0.4
- CCc1c(C)nc(SCc2cccnc2)[nH]c1=O
    3% | -8 | -1.4% | 7% | -28% | -8 | 1.5
- COCn1c(=O)c2c(nc(SC3=NCCS3)n2Cc2ccccc2C)n(COC)c1=O
    -27% | -5 | 0.2% | -13% | 11% | . | 2.4
- O=C(O)CSc1c(-c2cccs2)[nH]c2ccccc12
    0% | -4 | -13% | -5% | 22% | -2 | 3.6
- CCCc1cc(=O)oc2cc(OCC(=O)NCCCn3ccnc3)ccc12
    11% | -8 | 3.4% | -17% | -48%[inhibitor] | -8 | 0.0
- CC(=O)OCCN(Cc1ccccc1)Cc1ccc2c(c1)OCO2
    0% | -19 | 1.1% | 3% | -45%[inhibitor] | -8 | -0.7
- COc1ccc(/C=C/C(=O)Nc2sc(Cc3ccccc3)c(C)c2C(N)=O)cc1
    4% | 12 | -1.9% | -6% | 11% | ? | .
- Cc1ccccc1-c1coc2cc(O)ccc2c1=O
    19% | 3 | 28µM* | 2% | -1% | 3 | 4.1
- Cc1cnc(C(=O)Nc2ccc(C(C)C)cc2)cn1
    0% | -27 | -17% | -9% | 0%[15.4 µM] | -5 | -1.0

# Other compounds.
SMILES,Sfp PPTase inh,D2 potentiator,ClpP mod,gsp antag,gsp agonist,TRPV1 PAM,Menin-MLL FL inh
OCCC1CN(Cc2ccc3c(c2)CCO3)CCN1Cc1ccc(F)cc1 (stereo unspecified),4%,-7,-3.0%,11%,9%,3,1.9
O=C(NCCCN1CCCCCC1)c1ccc(CS(=O)(=O)Cc2ccccc2F)o1,2%,-2,-3.6%,6%,15%,-7,-12
O=C(NCC1CC1)c1ccc(Oc2cc(Cl)cc(Cl)c2)o1,-14%,-18,2.2%,-18%,?,3,2.7
Cc1cccc(N(C(=O)c2csnn2)C(C(=O)NC2CCCCC2)c2ccccn2)c1C (stereo unspecified),-7%,-4,.,-8%,?,17,3.5
CCCCc1c(C)nc2ccc(OC)cc2c1SCCC(=O)O,4%,3,.,23%,24%[15.4 µM],-10,5.2
CCOc1ccc(Br)cc1C(=O)N/N=C/c1ccc([N+](=O)[O-])cc1,0%,-7,.,2%,4%,1,0.9
CCC(=O)Nc1ccc(S(=O)(=O)NCc2ccco2)cc1,10%,1,1.8%,5%,-4%,-3,-1.4
CC(=O)N1CCN(C(=O)c2cc(S(=O)(=O)N(C)Cc3ccccc3)ccc2Cl)CC1,.,14,-0.4%,-4%,-11%,-1,.
Cc1ccc(S(=O)(=O)N2CCCC2CNC(=O)C(=O)NCc2ccccn2)cc1 (stereo unspecified),.,-3,.,-3%,12%[15.4 µM],9,.
CCOC(=O)N1CCN(c2c(NCc3ccc(Cl)cc3)c(=O)c2=O)CC1,15%,6,1.3%,15%,?,-4,5.7
Clc1ccc(-c2nc3ccc(Cl)cn3c2Cc2ccccc2)cc1,.,4,?,.,-40%[inhibitor],.,.
Cc1ccccc1Cn1ccc(NC(=O)c2nc3ncccn3n2)n1,16%,-3,1.4%,-3%,?,-11,2.7
CS(=O)(=O)N1CCC(C(=O)NCCc2ccccc2)CC1,19%,-8,0.5%,3%,-34%[inhibitor],?,-1.9
COc1ccc(C(Cl)=C(c2ccc(OC)cc2)c2ccc(OC)cc2)cc1,3%&11%&-7%&15%,7,-26%,?,.,-10,-2.9
Cc1ccc(S(=O)(=O)N2CCCCC2)cc1NC(=O)CNc1ccc(C(F)(F)F)cc1,.,-3,.,-17%,1%[15.4 µM],-5,.
O=C(CCc1ccc(S(=O)(=O)N2CCOCC2)cc1)N/N=C/c1cccc(O)c1,12%,2,0.3%,-4%,-72%[inhibitor],-8,5.0

# Assay outcomes as filed in PubChem BioAssay.
